# Assay outcomes (PubChem)
# GLA inh pH 4.5: blocks human alpha-galactosidase A at pH 4.5; P06280; purified enzyme, 4-MU-alpha-Gal fluorescence, pH 4.5; activity change, negative = inhibition, % at 105 µM; 230,000 tested, under 10 active; AID 1467; inconclusive = small, poorly fitted or top-dose-only inhibition, or a rising curve; inactive = flat fitted curve, though single readings scatter; no compound was filed as active;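 note: 0% = full activity with enzyme and -100% = basal without enzyme; dose as in the result columns while the protocol names 77 µM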
# Target sequence (P06280 whole entry, looked up): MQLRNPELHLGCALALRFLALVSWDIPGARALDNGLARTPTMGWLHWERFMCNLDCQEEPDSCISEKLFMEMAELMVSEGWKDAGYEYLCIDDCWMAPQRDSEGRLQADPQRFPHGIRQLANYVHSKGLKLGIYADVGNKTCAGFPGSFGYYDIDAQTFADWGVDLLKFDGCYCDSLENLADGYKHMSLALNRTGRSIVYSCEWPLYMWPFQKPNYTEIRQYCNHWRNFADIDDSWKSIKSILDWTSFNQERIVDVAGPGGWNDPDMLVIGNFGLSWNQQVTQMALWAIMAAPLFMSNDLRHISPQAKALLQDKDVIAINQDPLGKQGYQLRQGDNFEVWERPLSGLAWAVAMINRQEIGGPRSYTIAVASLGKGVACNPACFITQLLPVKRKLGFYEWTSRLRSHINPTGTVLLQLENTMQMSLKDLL
# Rango dissoc inh: prevents RanGTP from dissociating the Rango-importin beta complex | O95149+P62826 | hit rate 0.071% among 340,000 | Biochemical FRET Rango-importin beta, RanGTP-induced dissociation | Potency, µM (series often up to 46.1 µM), for inactives: top-dose activity change, negative = inhibition | AID 540253; active means falling FRET ratio curve, often poorly fitted, with flat reads before Ran was added; inconclusive means other falling curves, or compound fluorescence or quenching; inactive means flat or rising ratio curve;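 note: potency is the fitted concentration of half-maximal effect; % of control where 0% means no effect; nearly all actives have a fitted effect of over 45% in size; -100% = wells without RanGTP and RCC1; the record marks most hits as doubtful in a second field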
#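 Two FRET readings bracket the reaction: one 5 min after compound meets Rango–importin beta, another 45 min after RanGTP-RCC1 (0.6 uM Ran, 0.2 uM RCC1, 2 mM GTP) is added. Only the second defines inhibition.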
# miR-21 FLuc: raises the signal of a miR-21 reporter. Potency, µM (doses to about 38.3 µM), for inactives: at the highest dose reporter change, positive = more light. HeLa miR-21 FLuc reporter, luciferase, 48 h. AID 2288. 340,000 tested, under 10 active; active = well fitted rising curve with a large enough effect; inconclusive = small, poorly fitted or top-dose-only effect; inactive = no such curve, though single readings can be large or run the other way;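 note: % of control where 0% means no effect; miR-21 action dims this reporter so a rising signal means less miR-21 action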
#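 Compounds were titrated across several concentrations (up to approximately 40 uM) and incubated 48 hours with HeLa miR-21-FLuc reporter cells (miR-21 target sequence downstream of FLuc, endogenous miR-21). Readout was firefly luciferase luminescence after lytic detection reagent.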
# Rango complex inh: inhibitors of Rango-importin beta complex formation; Q14974; hit rate 0.031% among 340,000; Rango CFP/YFP FRET sensor + importin beta, 45 min; Potency, µM (top dose mostly 92.2 µM), without a hit: at the highest dose inhibition of complex formation; active = rising FRET ratio curve, often small or poorly fitted; inconclusive = mostly compound fluorescence or quenching in the first reads; inactive = flat curves in all reads;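 note: potency is the fitted concentration of half-maximal effect; 0% = DMSO wells and 100% = buffer wells lacking importin beta; nearly all actives have a fitted effect of over 15% in size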
#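 FRET biosensor (snurportin 1 IBB flanked by EYFP and cerulean), 50 nM, with compound 5 min, then 0.125 microM importin beta in PBS, 1 mM DTT, 0.02% Tween-20, 0.1% BSA. CFP/YFP ratio read after 45 min at room temperature; pre-read flags interference.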
# Starred values were filed as active, the others as inactive; ? = inconclusive; . = not tested or not shown; & = joins results of further samples; [ ] = another dose, or the depositor's remark. Some of the compounds tested (hit frequency here may not be typical).
SMILES,GLA inh pH 4.5,Rango dissoc inh,miR-21 FLuc,Rango complex inh
CCOc1ccc2[nH]c(=O)c(CN(CC3CCCN3CC)C(=O)NCc3ccccc3)cc2c1 (configuration not stated),-1,?,0%,?
CC1CCN(C(=O)CCNS(=O)(=O)c2ccc(Br)cc2)CC1,.,-1%,.,-1.0%
CCc1ccccc1NC(=O)CNC(=O)CNC(=O)C1CCCCC1,.,-9%,.,-4.8%
CCOc1cc(Cl)c(S(=O)(=O)NCc2cccnc2)cc1Cl,.,8%,20%,-0.2%
CN(CC(=O)Nc1ccc(S(=O)(=O)N2CCCC2)cc1)Cc1cccc(Cl)c1Cl,-8,-13%,15%,9.1%
Cc1ccc(S(=O)(=O)N2CCN(C(=O)C(Cc3ccccc3)NC(=O)c3ccccc3)CC2)cc1 (configuration not stated),.,-5%,.,-4.2%
Cc1[nH]c(=O)[nH]c(=O)c1NC(=O)c1cccs1,4,6%,0%,4.6%
COc1ccc(/C=C/C(=O)NC(C)C)cc1Br,1,-1%,-13%,0.2%
O=S(=O)(Nc1ccccc1)C1CCCCC1,.,-6%,.,-1.3%
Cc1cccc(N(CC(O)CN(C)C)S(=O)(=O)c2ccccc2)c1 (configuration not stated),-2,-3%,-5%,0.7%
CN1C(C(=O)NCc2cccc(C(F)(F)F)c2)CC2Cn3c(nc4ccccc43)C21 (configuration not stated),2,12%,-1%,4.3%
COc1ccc(-n2c(SCC3CNC(=O)O3)nnc2-c2ccc(Cl)cc2)cc1 (configuration not stated),-4,-2%,-6%,0.9%
O=C(c1cccc(C(F)(F)F)c1)c1c[nH]c(C(=O)NCC2CCCO2)c1 (configuration not stated),4,-17%,13%,1.9%
CC(C)C[C@@H](CN)NC(=O)c1nc[nH]c1C(=O)N[C@@H](C)C(=O)CNC[C@H](C)NC(=O)c1nc[nH]c1C(=O)N[C@@H](CC(=O)O)C(=O)O,.,31%,.,6.5%
CCOC(=O)Cc1csc(NC(=O)CCC(=O)O)n1,2,2%,-1%,0.0%
COCc1cc(C)nc(N2CCN(c3ccccc3)CC2)c1C#N,-4,17%,-5%,-5.4%
O=C(CNC(=O)C1COc2ccccc2O1)N/N=C/c1cc(Br)c(O)c(Br)c1 (configuration not stated),.,5%,-3%,1.8%
COC(=O)c1cc(C#N)c(Oc2ccc(F)cc2)nc1C,-12,1%,-16%,-0.6%
O=C(O)CCN1C(=O)CC2(CCCCC2)C1=O,-7,-1%,-3%,-1.4%
O=C(NNS(=O)(=O)c1ccc(Br)cc1)NC1CCCCC1,12,-18%,-4%,0.9%
O=C(CN1CCC(Cc2ccccc2)CC1)Nc1ccc2c(c1)OCCO2,-4,12%,-3%,7.4%
CC1(C)Cc2c(sc3nc(NCCN4CCOCC4)n4ncnc4c23)CO1,-9,17%,-5%,0.4%
O=C(CCC(=O)N1CCOc2ccccc21)N1CCN(c2ccccc2)CC1,.,-22%,2%,-0.8%
CC(C)NCc1nnc(-c2ccc(Cl)cc2)o1,-2,29%,-13%,-0.1%
Cc1cc(C)n(CCOc2nonc2N)n1,1,0%,-2%,1.3%

# Record cards (already shown). Order of values: GLA inh pH 4.5, Rango dissoc inh, miR-21 FLuc, Rango complex inh
# O=C(NNS(=O)(=O)c1ccc(Br)cc1)NC1CCCCC1 is listed as 12, -18%, -4%, 0.9%
# CN(CC(=O)Nc1ccc(S(=O)(=O)N2CCCC2)cc1)Cc1cccc(Cl)c1Cl is listed as -8, -13%, 15%, 9.1%
# COc1ccc(-n2c(SCC3CNC(=O)O3)nnc2-c2ccc(Cl)cc2)cc1 (configuration not stated) is listed as -4, -2%, -6%, 0.9%
# Cc1cccc(N(CC(O)CN(C)C)S(=O)(=O)c2ccccc2)c1 (configuration not stated) is listed as -2, -3%, -5%, 0.7%
# CCOc1ccc2[nH]c(=O)c(CN(CC3CCCN3CC)C(=O)NCc3ccccc3)cc2c1 (configuration not stated) is listed as -1, ?, 0%, ?

# The results go on:
SMILES,GLA inh pH 4.5,Rango dissoc inh,miR-21 FLuc,Rango complex inh
N#Cc1c(NC(=O)CCC(=O)O)sc2c1CCCCC2,6,-13%,-6%,?
COCC(=O)Nc1nc(-c2ccc(-c3ccccc3)cc2)cs1,.,6%,-13%,5.3%
Cn1c(N)c(C(=O)COC(=O)c2cccc(S(=O)(=O)N3CCOCC3)c2)c(=O)n(C)c1=O,.,0%,.,-0.2%
O=C(Nc1ccc(Cl)cc1)Nn1cnc2ccccc2c1=O,.,13%,-20%,-1.7%
CC(C)C[C@H](NC(=O)c1nc[nH]c1C(=O)N1CCC(C)CC1)C(=O)OCc1ccccc1,-5,2%,5%,0.4%
CC(C)C(=O)Nc1cccnc1,13,-8%,-4%,3.2%
CCN1C[C@@H]2[C@@H]3C(=O)N(C)C(=O)[C@@H]3[C@](C)(C1=O)N2C(=O)c1ccc(C)cc1,.,-9%,.,-1.2%
Fc1ccc(NCc2cccnc2)cc1F,6,-2%,-5%,-0.5%
O=C(CCCC(=O)NC1CCCC1)NC1CCCC1,-1,-7%,-1%,1.7%
CCOC(=O)c1ccc(NC(=O)N2CCN(C3CCCCC3)CC2)cc1,-9,-1%,2%,0.3%
O=C(Nc1ccc2oc(-c3ccncc3)nc2c1)c1ccc2c(c1)OCO2,-1,-1%,-8%,-0.9%
Cc1nnc(NC(=O)c2cc(S(=O)(=O)N3CCCCC3)ccc2Cl)s1,.,-2%,0%,0.7%
O=C(c1cccc2ccccc12)N1CCN(c2ccc([N+](=O)[O-])c(NCc3ccco3)c2)CC1,-2,1%,-7%,2.9%
Cc1ccccc1Nc1nc(-c2sc(NC(=O)c3ccccc3)nc2C)cs1,-3,.,-16%,.
CN(CCCn1cnc2c(OCc3ccccc3)ncnc21)CCc1ccccn1,.,3%,.,-0.2%
N=c1c(C(=O)NCCN2CCOCC2)cc2c(=O)n3ccccc3nc2n1Cc1ccc(F)cc1,.,?,0%,?
CCCCC(=O)NC(=S)Nc1ccc(S(=O)(=O)N2CCCC2)cc1,1,19%,-3%,-1.0%
COc1ccc(CCNC(=O)COC(=O)c2cccs2)cc1,.,18%,.,-1.7%
CSCCC(NC(=O)COc1ccccc1)C(=O)O (configuration not stated),0,0%,-1%,-0.3%
COc1ccc(C(C)NC(=O)C2C(=O)NC3(C)CC2c2ccccc2O3)cc1 (configuration not stated),-8,2%,-5%,-0.2%
O=C(COc1ccc(S(=O)(=O)N2CCOCC2)cc1)Nc1ccccc1F,.,7%,.,0.5%
CN(C)c1cccc2c1c(NC(=O)c1ccc(F)cc1)nn2C,-27,10%,-8%,-0.5%
CC1CC(C)CN(S(=O)(=O)c2ccc(NC(=O)C3COc4ccccc4O3)cc2)C1 (configuration not stated),-5,-4%,1%,-1.8%
Nc1ccccc1C(=O)N1O[C@@H]2C=C[C@H]1CC2,.,0%,.,0.2%
Cc1ccc(S(=O)(=O)c2cn(C)c3cc(N4CCN(C)CC4)c(F)cc3c2=O)c(C)c1,.,?,-13%,-0.5%
# Next records follow:
SMILES,GLA inh pH 4.5,Rango dissoc inh,miR-21 FLuc,Rango complex inh
COc1ccc(C)cc1NC(=O)NNS(=O)(=O)c1ccc(NC(C)=O)cc1,.,27%,0%,0.4%
COc1ccc(C2C3=C(OC(C)=O)c4ccccc4C3=Nc3c2c(=O)n(C)c(=O)n3C)cc1 (configuration not stated),-2&0,-6%,0%&4%,-2.8%
COc1ccc(CCN2CC(C(=O)OC(C)C(=O)Nc3ccc(NC(C)=O)cc3)CC2=O)cc1OC (configuration not stated),.,1%,.,-1.8%
CCC(CCC(=O)NNC(=O)Cc1ccc([N+](=O)[O-])cc1)C(=O)O (configuration not stated),-9,-1%,-3%,0.7%
CN(C)/C=C/C(=O)c1nn(-c2ccc(F)cc2)ccc1=O,-6,2%,4%,-0.4%
COc1ccc(-c2[nH]ncc2CNCCCSC)cc1F,-2,24%,3%,?
O=[N+]([O-])c1ccc(N2CCN(S(=O)(=O)c3ccccc3)CC2)cc1NCc1cccnc1,-19,-3%,-2%,-0.4%
CCCC(C)C(=O)OCC(=O)Nc1c(Br)cc(C)cc1Br (configuration not stated),-7,6%,0%,-3.0%
Cc1cc(OCCN2CCCCCC2)ccc1[N+](=O)[O-],0,?,-11%,3.3%
CSC(=NC#N)N1CCN(c2ccccc2)CC1,-4,2%,-14%,3.7%
CCN(CC)C(=O)CSc1ccc(C(F)(F)F)cc1[N+](=O)[O-],2,0%,-4%,1.0%
CCc1ccc(OCC(=O)NCC(c2ccc(Cl)cc2)N2CCCCC2)cc1 (configuration not stated),.,-7%,19%,2.2%
COc1ccccc1CNC(=O)COC(=O)c1cc(C)nc2ccccc12,.,-1%,.,1.0%
CC(C)c1ccc(N(CC(=O)NCc2ccc(F)cc2)C(=O)c2snc(C(N)=O)c2N)cc1,.,?,-5%,?
CCN1CCN(c2ccc(NC(=O)COc3ccccc3Cl)cc2)CC1,-17,-12%,-14%,-1.7%
COc1ccccc1/C=C1\SC(=S)N(C(C(=O)O)c2ccccc2)C1=O (configuration not stated),-9,2%,-6%,1.4%
O=C(Nc1nonc1NC(=O)C1CCCCC1)C1CCCCC1,1,35%,-5%,?
Cc1ccc(NC(=O)CSc2nc3c([nH]c4ccccc43)c(=O)n2C)cc1,6,4%,6%,3.6%
CC/C(C)=N/Nc1nc2c(c(=O)[nH]c(=O)n2C)n1CCc1ccccc1,-23,1%,-4%,4.2%
CN(C)c1ccc(/C=N/Nc2ccc(-n3ccnc3)nn2)cc1,-10,-9%,-19%,-1.8%
O=C(N/N=C\C=C\c1ccco1)C1COc2ccccc2O1 (configuration not stated),-10,17%,23%,-4.5%
CC(C)NC(=O)C1(O)c2ccccc2NC(=O)N1c1ccc(Cl)c(Cl)c1 (configuration not stated),-2,1%,-8%,-0.1%
COc1ccc(C2C(C(=O)Nc3cc(OC)c(OC)c(OC)c3)c3ccccc3C(=O)N2C)cc1 (configuration not stated),?,-5%,25%,-7.2%
CC(C)C[C@H](N)c1cn([C@@H](Cc2cc3ccccc3[nH]2)C(=O)N2CCNCC2)nn1,2,2%,-1%,0.6%
CN(C)S(=O)(=O)c1cccc(NC(=S)NNC(=O)c2cc3ccccc3cc2O)c1,.,?,.,?
# More records follow:
SMILES,GLA inh pH 4.5,Rango dissoc inh,miR-21 FLuc,Rango complex inh
COc1ccc(N2CCN(C(c3ccco3)c3sc4nc(C)nn4c3O)CC2)cc1 (configuration not stated),-25,0%,-9%,1.0%
COc1ccc(OC)c(NC(=O)c2cccc(NC(=O)c3ccccc3)c2)c1,.,27%,7%,1.1%
CCOC(=O)N1CCN(Cc2cc(=O)oc3ccc4ccccc4c23)CC1,-7,-6%,-4%,-5.2%
CN(CC(=O)Nc1cccc(F)c1)C(=O)c1ccncc1,.,-11%,-1%,0.2%
COc1cc(/C=C2\SC(=Nc3ccccc3OC)NC2=O)ccc1O,.,?,14%,?
Cc1nnc(NC(=O)CSc2nnc(-c3ccco3)o2)s1,2,-4%,-11%,-0.1%
COc1cc(/C=N/NC(=O)CNC(=O)c2ccncc2)ccc1O,.,8%,1%,4.8%
O=C(OCn1nnc2ccccc2c1=O)c1cccc(S(=O)(=O)N2CCOCC2)c1,.,-1%,.,8.4%
COc1ccc(OC)c(NC(=O)Cn2c(CCC(=O)O)ccc2-c2ccc(C)cc2)c1,-4[21.1 µM],2%,-4%,-0.4%
CCCCN(C(=O)C1CC(=O)N(c2ccc3c(c2)OCCO3)C1)c1c(N)n(CCC)c(=O)[nH]c1=O (configuration not stated),.,-9%,.,-0.8%
O=C1C=C(NC2CC2)C2(CCCCC2)O1,3,-3%,7%,-5.0%
CCN(CC)C(=O)CCCSc1nnc(Nc2ccccc2F)s1,-4,1%,-45%,-0.9%
COc1cccc(N(CC(=O)Nc2ccccc2C)S(C)(=O)=O)c1,0,5%,-3%,5.6%
Nc1ccc(C(=O)OCC(=O)Nc2cc([N+](=O)[O-])ccc2F)cc1,-2,26%,1%,0.2%
COC(=O)c1cccc(NC(=O)C23CC4CC(C2)CC(n2cncn2)(C4)C3)c1,-2,-6%,-3%,0.0%
CCn1c(SCC(=O)N2CCC(C)CC2)nc2c(c1=O)SC(C)C2 (configuration not stated),.,11%,0%,2.8%
Cc1ccc(N/C(N)=N/c2nc(C)cc(N3CCCCC3)n2)c(C)c1,-2,5%,?,6.0%
